Screening data deposited in PubChem by Southern Research Specialized Biocontainment Screening Center.
V. cholerae QS – Vibrio cholerae quorum sensing activators, luminescence (AID 686977). V. cholerae quorum sensing reporter, luminescence, 6 h; higher luminescence means a stronger effect; most inactives read 0. luminescence at 50 µM unless noted, or EC50 in µM where a hit was titrated. 9,400 tested, under 10 active;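 active = light above mean plus 3 SD and confirmed in a dose series; inconclusive = above that limit without a clear retest; inactive = below it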;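 also: raw light counts without normalisation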
* marks the source's active call; other numbers are inactive results; ? = inconclusive; [ ] = another dose, or the depositor's remark. The list is partial; count on the stated rates, not on these rows.

Start of the listing, in advance (four entries):
SMILES	V. cholerae QS
CC[C@@H](C(=O)[C@@H](C)[C@@H](O)[C@H](C)CCc1ccc(C)c(O)c1C(=O)O)[C@H]1O[C@](CC)([C@H]2CC[C@](O)(CC)[C@H](C)O2)C[C@@H]1C	40[10 µg/mL]
Cc1ccccc1Cn1c(=O)n(CCC(=O)NCc2ccc3c(c2)OCO3)c(=O)c2ccccc21	0
CC(C)c1ccc(-c2nc(N3CCCCCC3)nc3n[nH]c(N)c23)cc1	0
Cn1c(NCCO)nc2c(c1=O)C1(CCCCC1)Cc1ccccc1-2	360

All compounds of this part, previewed entries included:
SMILES	V. cholerae QS
CC[C@@H](C(=O)[C@@H](C)[C@@H](O)[C@H](C)CCc1ccc(C)c(O)c1C(=O)O)[C@H]1O[C@](CC)([C@H]2CC[C@](O)(CC)[C@H](C)O2)C[C@@H]1C	40[10 µg/mL]
Cc1ccccc1Cn1c(=O)n(CCC(=O)NCc2ccc3c(c2)OCO3)c(=O)c2ccccc21	0
CC(C)c1ccc(-c2nc(N3CCCCCC3)nc3n[nH]c(N)c23)cc1	0
Cn1c(NCCO)nc2c(c1=O)C1(CCCCC1)Cc1ccccc1-2	360
O=C1CCCN1CN1CCCCC1	40
Cc1cccc(N(CC(=O)NC2CCCCC2)C(=O)c2c(C)noc2C)c1	160
C=CCOC(=O)C(C#N)c1nc2ccccc2nc1N1CCN(Cc2ccc3c(c2)OCO3)CC1 (stereo unspecified)	0
CSc1ncc(Cl)c(C(=O)O)n1 (tested in a mixture with another compound)	40
C=CCSc1nnc(NC(=O)c2ccc(Cl)nc2)s1	0
CN(C)CC/C=C1\c2ccccc2CSc2ccccc21	40[10 µg/mL]
COC(=O)c1cn(CCOc2ccccc2)c2ccccc12	0
CCOc1ccc(C2=Nn3c(nnc3-c3ccccc3OC)SC2)cc1	40
CC[C@H](C)C(=O)O[C@H]1C[C@@H](C)C=C2C=C[C@H](C)[C@H](CC[C@@H]3C[C@@H](O)CC(=O)O3)[C@H]21	0[10 µg/mL]
CCCn1c(NCc2ccc(N(C)C)cc2)nc2ccccc21	40
O=C(NNC(=O)c1ccc2ccccc2c1O)c1ccccc1Cl	0
CCCCn1c(CNC(=O)CCC)nc2ccccc21	40
O=C1CC(c2ccc(S(=O)(=O)Nc3cc(C(F)(F)F)cc(C(F)(F)F)c3)cc2)CN1 (stereo unspecified)	0
Cn1c(=O)oc2cc(S(=O)(=O)NCCC(=O)NCCc3ccccc3)ccc21	0
CCc1ccc(CCC(=O)Nc2ccc(C)c(C)c2)o1	0
CCOc1ccc(Cn2nnc(C(=O)NCc3ccccc3)c2N)cc1	40
COc1cccc(N(C(C)=O)c2nc(C)cc(C)c2C#N)c1	0
COC(=O)c1cc2ccc(OC)c(OC)c2c(=O)s1	0
CN=C(C)c1c(O)c2ccccc2oc1=O	40
O=C(Nc1ccccc1)C1=C(O)CC(c2ccoc2)CC1=Nc1ccccc1 (stereo unspecified)	0
COc1ccc(NC(=O)N2CCC(NC(=O)c3ccco3)CC2)cc1	40
CCCCN(C(=O)c1cnc2n(c1=O)CCS2)c1ccccc1	0
COc1ccc(S(=O)(=O)NCCSCc2ccco2)cc1Cl	0
Cc1n[nH]c(=S)c2nn(-c3ccccc3F)c(C)c12	0
Cc1cc(NC(=O)CSc2ccc(Cl)cc2)no1	80
CNCC(O)C(O)C(O)C(O)CO (stereo unspecified)	40[10 µg/mL]

Brought forward from above: 3 compounds; new compounds follow.
SMILES	V. cholerae QS
Cc1n[nH]c(=S)c2nn(-c3ccccc3F)c(C)c12	0
Cc1cc(NC(=O)CSc2ccc(Cl)cc2)no1	80
CNCC(O)C(O)C(O)C(O)CO (stereo unspecified)	40[10 µg/mL]
COc1cc(NC(=O)C2CCCN2C(=O)C2CCC(C)CC2)cc(OC)c1OC (stereo unspecified)	0
COc1ccc(C)c2sc(=NC(=O)c3ccccc3)n(C)c12	?
O=C(Nc1ccc(N2CCN(C(=O)c3ccc(Cl)cc3)CC2)cc1)c1ccc(Br)o1	0
CC1=C(C(=O)N(C)C)C(c2cccc(Cl)c2)NC(=O)N1 (stereo unspecified)	0
COc1cc(NC(=O)Cn2nc(C(F)(F)F)c3c2CCCC3)cc(OC)c1OC	280
CC[C@H]1CN2CCc3cc(OC)c(OC)cc3[C@@H]2C[C@@H]1C[C@H]1NCCc2cc(O)c(OC)cc21	0[10 µg/mL]
NCC1(CC(=O)O)CCCCC1	0[10 µg/mL]
CC[C@]12CCCN3CCc4c(n(c5ccccc45)C(=O)C1)[C@@H]32	40[10 µg/mL]
Cc1ccc(C)c(C(=O)N(Cc2nc(-c3ccc(Cl)cc3)no2)C(C)C)c1	40
COc1cc2cc3c4cc(OC)c(OC)cc4cc[n+]3c(C)c2cc1OC	40[10 µg/mL]
CCOC(=O)c1sc(NC(=O)C(C)(C)C)cc1C	0
CCCc1nc2sc(C(=O)OCC)c(N)c2c2c1COC(C)(C)C2	0
COc1ccc(-c2nnn(CC(=O)N(Cc3cccs3)C(C)C(=O)NCCC(C)C)n2)cc1OC (stereo unspecified)	40
CCOC(=O)c1cc(-c2ccccc2)nc2c1c(C)nn2-c1ccccn1	0
CCOC(=O)c1c(C)n(C)c2ccc(OCC(O)CN(CC)CC)cc12 (stereo unspecified)	0
Cc1cc2c3c(ccc(C)c3n1)N=CN2c1ccccc1	?
Cc1ccc(NS(=O)(=O)c2cc(C(N)=O)ccc2C)cc1	0
Nc1nonc1C(=O)NCCc1ccccc1	40
C/C=C1/C[C@@H](C)[C@](O)(CO)C(=O)OCC2=CCN3CC[C@@H](OC1=O)[C@@H]23	0[10 µg/mL]
CCCCC(=O)N1CCCC(c2nc3c(nnn3Cc3cc(C)ccc3C)c(=O)[nH]2)C1 (stereo unspecified)	40
CCOc1ccc(NC(=O)CS(=O)(=O)c2cn(C)c3ccccc23)cc1	40
O=P(COc1ccccc1)(c1ccccc1)c1ccccc1	0
CCOC(=O)c1nnn(-c2nonc2N)c1-c1ccc(OCC)cc1	0
CCOC(=O)C1=C(C)NC(=O)NC1c1ccc(N(C)C)cc1 (stereo unspecified)	0
CCOC(=O)c1ccc(N2C(=O)c3n[nH]c(C)c3C2c2ccccn2)cc1 (stereo unspecified)	40
CC1=C(C(=O)OC(C)C)C(C2CC=CCC2)NC(=O)N1 (stereo unspecified)	40
CCC(NC(C)C)C(O)c1ccc(O)c(O)c1 (stereo unspecified)	40[10 µg/mL]
CS(=O)(=O)N(CC(=O)N1CCN(Cc2ccccc2)CC1)c1ccc2c(c1)OCCO2	0
CC(C)OCCCNC(=O)c1cc2c(=O)n(C)c3ccccc3c2n1C	40
COC(=O)c1cccc(Oc2nc3c(c(=O)n(C)c(=O)n3C)n2C(C)C)c1	0
COc1ccc(CC(=O)Nc2ccc(-c3noc(-c4cccc(OC)c4)n3)cc2)cc1	0
COc1ccc2nc(SCc3nc(N)nc(Nc4ccccc4)n3)[nH]c2c1	40
Cc1c(NS(=O)(=O)c2cccc(C(=O)NCc3ccc(Cl)cc3)c2)c(=O)n(-c2ccccc2)n1C	280
COC(=O)c1sccc1NC(=O)Cn1cnc2c1c(=O)n(C)c(=O)n2C	40
Nc1ccc(C(=O)Nc2nc3ccccc3s2)cc1	0
Cc1ccc(-n2c(C)c([N+](=O)[O-])c3ccc(O)c(CN(C)C)c32)cc1	40
N#Cc1nc(-c2cccc3ccccc23)oc1N1CCCCC1	0
COc1ccccc1NS(=O)(=O)c1cc([N+](=O)[O-])ccc1N/N=C/c1c[nH]c2ccccc12	0
CCOC(=O)c1[nH]c2ccccc2c1NC(=O)C(CC)CC	0
COC(=O)c1[nH]c2ccccc2c1NS(=O)(=O)c1ccc(OC)cc1OC	120
Cc1cccc(Nc2ccccc2C(=O)O)c1C	0[10 µg/mL]
Cc1ccc(N(c2ncnc(N)c2[N+](=O)[O-])C2CCCCC2)cc1	0
O=C(Nc1cccnc1)c1c(O)c2c(n(Cc3ccccc3)c1=O)CCCC2	280
COc1ccccc1N(C)S(=O)(=O)c1ccc(C(=O)NCC(C)C)cc1	0
O=C(CSc1oc(-c2cccs2)nc1S(=O)(=O)c1ccc(F)cc1)NCC1CCCO1 (stereo unspecified)	0
O=C(CCn1c(=S)[nH]c2ccccc2c1=O)NCC1CCCO1 (stereo unspecified)	0
CC(=O)NS(=O)(=O)c1ccc(NC(=O)c2ccc(Br)o2)cc1	0
CCCNc1c(N)c(=O)oc2ccccc12	0
COC(=O)c1c(NC(=O)C2CC2)sc2c1CCCC2	40
Cc1cccc(NC(=O)CS(=O)(=O)Cc2ccccc2)n1	0
Oc1cc(O)c2c(c1)OC(c1ccc(O)c(O)c1)C(O)C2 (stereo unspecified)	0[10 µg/mL]
COc1cccc(OC)c1C1=NCC(=O)Nc2c1oc1ccc(Br)cc21	40
Cc1cc2c(c(=O)o1)C(Cc1ccccc1)C(C#N)=C(N)O2 (stereo unspecified)	40
CC(/C=C/c1ccc2c(c1)OCO2)=N\NC(=O)c1cccc([N+](=O)[O-])c1	0
O=C(O)C1CCC(=O)N(C2CCCCC2)C1c1ccccc1 (stereo unspecified)	0
COc1cc2c(=O)n(Cc3ccccc3)c(=O)n(CC(=O)NCC3CCCO3)c2cc1OC (stereo unspecified)	280
CCCCn1nnc(NC(=O)CC23CC4CC(CC(C4)C2)C3)n1	0
CCOC(=S)NC(=O)c1sc2ccccc2c1Cl	0
Cc1ccc(CSc2nnc(-c3ccncc3)n2C)cc1	40
CS(=O)(=O)N(CC(=O)N1CCc2ccccc2C1)Cc1ccc(Cl)cc1	40
Later entries:
SMILES	V. cholerae QS
CC(Sc1nnnn1C)C(=O)Nc1ccccc1-c1ccccc1 (stereo unspecified)	40
O=C1C2CCCN2C(c2cccnc2)N1c1cccc(Cl)c1 (stereo unspecified)	0
CCn1c2ccccc2c2cc(NC(=O)CSc3nnc(-c4ccccc4)o3)ccc21	0
COc1cc(C(Nc2ccccn2)c2ccc3ccc(C)nc3c2O)cc(OC)c1O (stereo unspecified)	40
Fc1ccc(Cn2nnnc2CN2CCN(C3CCCCC3)CC2)cc1	0
CC(=O)c1c(C)[nH]c(C(=O)NCCN2CCC(C)CC2)c1C	0
CCOC(=O)N1CCN(C(=O)COc2ccc(Cl)cc2C)CC1	40
CCCC1C(=O)N2C(N(C)C)=Nc3ccc(C)cc3N2C1=O (stereo unspecified)	0[10 µg/mL]
Cc1cc(-c2nnc(SCC(=O)Nc3ccccc3C(F)(F)F)o2)c(C)n1-c1ccccc1	40
COc1ccc(C(c2sc3ncnn3c2O)N2CCN(c3ccccc3F)CC2)cc1OC (stereo unspecified)	40
CC(=O)C1=C(c2ccccc2)NC(=O)NC1c1ccccc1OCC(=O)NCc1ccccc1 (stereo unspecified)	0
N#Cc1c(NC(=O)c2nc3ncccn3n2)sc2c1CCCCC2	0
CSc1nc(N2CCOCC2)c2c(c1C#N)CC(C)(C)OC2	40
Cc1cc(C=Cc2ccc3cc(N(C)C)ccc3[n+]2C)c(C)n1-c1ccccc1	200[10 µg/mL]
CCCn1c(CCNC(=O)c2cccs2)nc2ccccc21	?

Five structures out of the list, sorted by molar mass, low to high:
SMILES	V. cholerae QS
CCCC1C(=O)N2C(N(C)C)=Nc3ccc(C)cc3N2C1=O (stereo unspecified)	0[10 µg/mL]
CC(=O)c1c(C)[nH]c(C(=O)NCCN2CCC(C)CC2)c1C	0
CC(Sc1nnnn1C)C(=O)Nc1ccccc1-c1ccccc1 (stereo unspecified)	40
Fc1ccc(Cn2nnnc2CN2CCN(C3CCCCC3)CC2)cc1	0
Cc1cc(-c2nnc(SCC(=O)Nc3ccccc3C(F)(F)F)o2)c(C)n1-c1ccccc1	40

Remaining list, next part.
SMILES	V. cholerae QS
COc1ccc(CCNC(=O)C2CCCN(S(=O)(=O)c3cnc[nH]3)C2)cc1OC (stereo unspecified)	40
O=C(Nc1ccc(Cl)cc1)C1CCCN(S(=O)(=O)c2cnc[nH]2)C1 (stereo unspecified)	0
O=C(Oc1ccccc1)c1cc2ccccc2o1	40
Cc1cccc(NC(=O)CS(=O)(=O)c2c[nH]c3ccccc23)c1C	40
O=C(C(c1ccccc1)c1ccccc1)N1CCN(Cc2ccc(Br)cc2)CC1	0
COc1ccc(N(CC(=O)Nc2nc3ccc(C)cc3s2)S(=O)(=O)c2c(C)nn(C)c2C)cc1	40
CN1C(=O)c2cccc(NCCCCCCN3C(=O)c4ccccc4C3=O)c2C1=O	0
CCN(CC)c1ncnc2sc(C(=O)N3CCN(c4ccccc4)CC3)c(C)c12	0
O=C(NCCC1=CCCCC1)c1ccc(F)c(S(=O)(=O)N2CCOCC2)c1	0
C[C@]12CCC(=O)C=C1CC[C@@H]1[C@@H]2[C@@H](O)C[C@@]2(C)[C@H]1CC[C@]2(O)C(=O)CO	0[10 µg/mL]
O=C1c2ccccc2C(Nc2ccc3c(c2)OCO3)N1Cc1ccc2c(c1)OCO2 (stereo unspecified)	?
COc1ccc(CCNC(=S)NC(=O)c2ccccc2)cc1OC	320
COc1ccccc1-n1c(SCC(=O)Nc2cccc(C)c2)nc2c(c1=O)SCC2	40
NC12CCc3c(no[n+]3[O-])C1(O)CC(c1ccccc1)=[N+]2[O-] (stereo unspecified)	0
Cc1ccc(Cn2nnc3c(=O)[nH]c(C4CCN(S(=O)(=O)c5cc(C)ccc5C)CC4)nc32)cc1	0
CCOC(=O)c1c(C)c(C(=O)N2CCN(c3cccc(Cl)c3)CC2)c(C)n1C	0
COc1ccc(Nc2nnc(-c3ccc(N4CCOCC4)c([N+](=O)[O-])c3)c3ccccc23)cc1	0
CC1Cc2ccccc2N1C(=O)Cn1cnc2ccccc2c1=O (stereo unspecified)	0
CC(C)CC(c1nnnn1CC1CCCO1)N1CCN(c2cccc(Cl)c2)CC1 (stereo unspecified)	0
CC1CCCC(N2C(=O)NC(NC(=O)c3ccco3)(C(F)(F)F)C2=O)C1C (stereo unspecified)	?
Cc1cc(C)n2c(SCC(=O)Nc3c(C)n(C)n(-c4ccccc4)c3=O)nnc2n1	0
CC(=O)C1=C(O)C(=O)N(c2nnn(C)n2)C1c1cccs1 (stereo unspecified)	40
CC(C)C(NC(=O)C1CCCCC1)C(=O)Nc1ccccn1 (stereo unspecified)	0
